PABP polyA inh = blocks human PABP binding to poly(A) RNA. inhibition, % at 35 µM. fluorescence polarization. P11940. AID 2014. 290,000 tested, 1% active;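 active = 50% or more with normal probe brightness, or confirmed in later tests; inconclusive = above 50% with abnormal brightness, or retests that disagree; inactive = below 50% or failed in later tests; about a fifth of its hits are not listed in these tables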;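 also: calls also rest on retests at 20 µM and on dose response follow-up; controls were probe without protein and protein plus probe with vehicle; some compounds called inactive have numbers as strong as hits; many hits fall short of the cut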
Target sequence (P11940 whole entry, looked up): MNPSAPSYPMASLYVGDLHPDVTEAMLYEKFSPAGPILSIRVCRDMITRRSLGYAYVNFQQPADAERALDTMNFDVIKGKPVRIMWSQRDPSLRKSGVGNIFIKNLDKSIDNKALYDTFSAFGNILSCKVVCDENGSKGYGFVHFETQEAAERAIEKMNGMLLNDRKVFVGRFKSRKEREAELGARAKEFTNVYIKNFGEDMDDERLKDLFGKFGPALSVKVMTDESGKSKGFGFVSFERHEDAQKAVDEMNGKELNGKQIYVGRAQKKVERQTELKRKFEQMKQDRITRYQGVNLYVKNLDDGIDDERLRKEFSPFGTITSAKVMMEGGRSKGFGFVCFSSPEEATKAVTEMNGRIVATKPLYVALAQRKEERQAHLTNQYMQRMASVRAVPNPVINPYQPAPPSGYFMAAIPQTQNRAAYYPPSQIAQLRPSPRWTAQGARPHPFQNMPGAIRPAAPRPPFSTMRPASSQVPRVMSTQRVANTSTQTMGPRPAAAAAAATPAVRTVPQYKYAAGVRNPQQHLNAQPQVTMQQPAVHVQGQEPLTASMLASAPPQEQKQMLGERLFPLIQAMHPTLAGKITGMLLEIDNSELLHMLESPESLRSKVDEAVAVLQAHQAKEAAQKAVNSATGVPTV
eIF4H FP inh = inhibitors of RNA binding by human eIF4H | Q15056 | eIF4H fluorescence polarization binding assay | inhibition, % at 35 µM | 290,000 tested, 0.94% active | AID 2012;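 active = 50% or more with normal probe brightness, or confirmed in later tests; inconclusive = above 50% with abnormal brightness, or retests that disagree; inactive = below 50% or failed in later tests; about a fifth of its hits are not listed in these tables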;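 also: calls also rest on retests at 20 µM and on dose response follow-up; 0% = protein and probe with vehicle and 100% = probe without protein; strong numbers were not always called active; many hits fall short of the cut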
MT1-MMP act inh = MT1-MMP (human) activation inhibition. GFP/RFP ratio change, % at 20 µM. P50281. HT1080 RFP-PRO-GFP cells, GFP/RFP ratio fluorescence, overnight; percent of plate control window, DMSO zero. AID 651647. 360,000 tested, 0.061% active;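 active = GFP/RFP ratio change of at least 30% with cell ATP level not reduced by more than half and red fluorescence within 50% of control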; also: strong numbers were not always called active
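Test system: HT1080 cells expressing an RFP-PRO-GFP fluorescent reporter construct / Compound dosing: single-point 20 µM compound, 1% DMSO / Schedule: cells overnight before dosing, compound overnight, 37 °C, 5% CO2 / Evaluation: GFP/RFP fluorescence ratio / Control set: DMSO and RFP-L50D-GFP cell wells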
Rce1 inh = inhibitors of yeast Ras-converting enzyme; calls only; 290,000 tested, 0.27% active; Q03530; AID 2563; yeast membranes, quenched prenylated peptide cleavage fluorescence;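 active = fall in fluorescence gain of 50% or more versus controls, with final raw signal at or below 3038400; inconclusive = same 50% fall but final raw signal above 3038400; inactive = fall in fluorescence gain under 50%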;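 also: plate controls were neutral control wells for no effect and wells lacking membranes for full effect; tested at 10 µM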
Target sequence (Q03530 whole entry, looked up): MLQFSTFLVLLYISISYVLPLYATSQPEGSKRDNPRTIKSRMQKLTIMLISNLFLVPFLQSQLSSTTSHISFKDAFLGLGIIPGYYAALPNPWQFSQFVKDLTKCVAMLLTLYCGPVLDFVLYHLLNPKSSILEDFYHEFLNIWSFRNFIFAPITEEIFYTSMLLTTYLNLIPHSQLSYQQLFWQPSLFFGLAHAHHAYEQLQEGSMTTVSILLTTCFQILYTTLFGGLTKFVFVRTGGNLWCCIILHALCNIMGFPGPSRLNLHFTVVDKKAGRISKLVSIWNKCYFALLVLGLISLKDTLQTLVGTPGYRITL
Yeast UUG start = alters start codon recognition fidelity in yeast | 350,000 tested, 0.13% active | activity score, % at 18.7 µM | S. cerevisiae UUG-firefly luciferase reporter, luminescence/redox ratio;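 active = replicate mean at a twofold rise or more, about +100% in these data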;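 also: firefly luciferase made from a UUG start codon reports start codon fidelity; reporter light over untreated wells divided by growth signal over untreated wells; some hits fall short of that in this replicate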
CSC inhib = blocks cancer stem cells | cancer stem cell-like cells viability, luminescence | inhibition, % at 7.5 µM | 300,000 tested, 1.1% active;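 active = mean at 75% or more and at least half the replicates too; inconclusive = mean and replicates disagree; tested in HMLE shEcad cells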;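 also: 0% = median of negative and 100% = median of positive control wells; the first replicate is given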
Env fusion inh = blocks HIV Env-driven cell-cell fusion; HeLa-JRFL Env/CEM21 cell fusion, luciferase; inhibition, % at 12.3 µM; 360,000 tested, 1.1% active; AID 651610;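 active = mean replicate inhibition score of at least 50 and every replicate individually at or above 50; inconclusive = only one of the two criteria met; inactive = mean below 50 and not all replicates reaching 50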;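 also: 0% = plate neutral controls and 100% = maraviroc near 300 nM; one replicate is shown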
MT1-MMP act inh RFP = further read-out of MT1-MMP act inh, marked with its call; RFP signal change, %; measured here: RFP expression control read;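 0 = vehicle wells; hits needed this value within 50% of zero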
Numbers without * were called inactive; i = inactive; ? = inconclusive; / = not tested or not shown; & = joins results of further samples; [ ] = dose if it differs, or a comment. Outcome played no part in choosing rows. Share with any hit: about 3%.

SMILES	PABP polyA inh	eIF4H FP inh	MT1-MMP act inh	MT1-MMP act inh RFP	Rce1 inh	Yeast UUG start	CSC inhib	Env fusion inh
O=C(NC(C(=O)c1ccccc1)n1c(=O)cc[nH]c1=S)c1ccccc1 (stereo unspecified)	-1	0	0	8	i	-18	2	/
C(=N\Nc1nc2ccccc2s1)/c1ccco1	-12	-2	/	/	i	17	5	-372
C[C@H]1CN([C@@H](C)CO)C(=O)CCCn2nncc2CO[C@H]1CN(C)C(=O)NC1CCCCC1	/	/	0	6	/	-6	/	8
C[C@H](CO)N1C[C@H](C)[C@@H](CN(C)Cc2ccccc2)Oc2c(NC(=O)Cc3ccccc3)cccc2C1=O	/	/	-1	-4	/	-4	/	-224
CCCCc1ncc(CN2CCC(CC3CCCCO3)(C(=O)OCC)CC2)[nH]1 (stereo unspecified)	-4	-4	-3	0	i	-11	-3	-15
O=C(N/N=C/c1ccc(OC(=O)c2cccc(F)c2)cc1)c1cccnc1	-51	-53	8	5	i	-13	-5	4
Cc1cccc(NC(=O)CNC(=O)c2ccc(S(=O)(=O)NCc3ccco3)cc2)c1C	/	/	2	0	/	2	/	-49
COCCNC(=O)c1c(N)n(CCC2=CCCCC2)c2nc3ccccc3nc12	?	?	-46	6	i	-5	31	-10
CC(=O)c1ccc(OCCCC(=O)N2CCN(S(=O)(=O)c3cccs3)CC2)cc1	-9	8	4	-7	i	-16	-8	-13
COc1ccc(C(=O)NCCSCc2ccco2)cc1OC	0	-2	3	-3	i	/	-6	/
O=C(CCS(=O)(=O)c1ccccc1)Nc1ccc(S(=O)(=O)Nc2nccs2)cc1	/	/	1	-5	/	/	-5	-24
CC(=O)c1cc(F)c(N2CCN(c3ccc([N+](=O)[O-])cc3F)CC2)cc1C	-2	-12	5	0	/	10	-19	-22
CCOC(=O)c1oc2cc(C)cc(C)c2c1C	4	-1	-1	3	i	/	-12	-5
CCN(CC(=O)Nc1ccc2c(c1)OCCO2)C(=O)c1ccccc1Br	/	/	-1	0	/	-7	-22	/
O=C(CSc1ncn[nH]1)Nc1ccc(Cl)c(S(=O)(=O)N2CCOCC2)c1	-5	6	1	-1	i	/	5	-12
CCc1ccc(OCC(=O)NC(=S)Nc2ccc(Br)c(C)n2)cc1	13	0	0	1	i	/	/	-29
C=CCNC(=O)c1cc(C(=O)C(C)c2ncc(C(F)(F)F)cc2Cl)c[nH]1 (stereo unspecified)	10	14	9	-2	i	3	-2	19
Cc1cccc(NC(=O)COC(=O)c2nn(C)c(=O)c3ccccc23)c1C	/	/	12	2	/	3	-22	-3
COC(=O)c1cccc(NC(=O)CSc2nnc(C3CC3)n2C)c1	3	-4	-2	1	i	-14	-2	-4
O=C(NNC(=O)c1cc(Cl)ccc1O)c1cccs1	-2	-10	4	5	i	-15	/	-10
CC(=O)N1CCN(S(=O)(=O)c2cccc(C(=O)N3CCN(S(=O)(=O)c4c(C)c(C)cc(C)c4C)CC3)c2)CC1	/	/	4	-3	/	8	/	14
C/C(=C\C(=O)c1ccc(Br)cc1)N1CCCCC1	1	3	-2	3	i	-9	0	-24
O=C(C1CCCCC1)N1C[C@@H](O)[C@H](n2cc(C3CC3)nn2)C[C@@H]1c1ccccc1	/	/	1	1	/	0	/	-79
Cc1ccc(NC(=O)c2nc[nH]c2C(=O)NCCN(CCNC(=O)c2[nH]cnc2C(=O)Nc2ccc(C)cc2)CCNC(=O)c2[nH]cnc2C(=O)Nc2ccc(C)cc2)cc1	/	/	-8	-9	/	-24	46	8
O=C(CN1CCN(S(=O)(=O)c2ccc(Cl)cc2)CC1)NC1CC1	14	14	-1	0	i	-13	-7	/
SMILES	PABP polyA inh	eIF4H FP inh	MT1-MMP act inh	MT1-MMP act inh RFP	Rce1 inh	Yeast UUG start	CSC inhib	Env fusion inh
CCOc1ccc2[nH]c(=O)c(CN(CC3COCCO3)C(=O)c3ccco3)cc2c1 (stereo unspecified)	0	-1	-3	0	i	-24	2	/
Cc1csc(NC(=O)[C@@H](NC(=O)c2ccccc2)C(C)C)n1	3	-4	3	-1	i	-12	-2	/
O=C(Oc1ccccc1)N1CCOCC1	-2	-7	2	3	i	-13	-22	-1
O=C1CC2(CCN(C(=O)c3ccc(F)c(F)c3)CC2)Oc2ccccc21	/	/	2	-3	i	1	-2	/
Fc1ccc(CNC(=S)Nc2ccc(Cl)cc2)cc1	1	2	7	-2	i	-14	1	/
O=C(NC1CCCCC1)N1CCC(n2cnc3ccccc32)CC1	16	-3	0	5	i	-2	/	8
CCCCOc1cccc(-c2nnc(NC(=O)CSc3ccc(C)cc3)s2)c1	-2	-13	3	4	i	/	5	-20
CCc1cc(=O)oc2cc(C)cc(OCC(=O)NC(Cc3ccc(Cl)cc3)C(=O)O)c12 (stereo unspecified)	3	3	4	2	i	-1	-6	/
CC(=O)c1ccc(Nc2ccc(-c3ccccc3C)nn2)cc1	-1	-10	1	-6	i	/	2	-33
CC(C)(C)N1C(=O)Cc2c1nc(N)c1c(N)nc(N3CCCCC3CO)c(C#N)c21 (stereo unspecified)	?	?	-9	14	i	14	16	/
Cc1ccccc1-c1cc(C(=O)NCc2ccc3c(c2)OCO3)n(CC2CC(c3cccnc3)=NO2)n1 (stereo unspecified)	/	/	4	-3	/	-15	20	6
Cc1cccc(NC(=O)CN2CCC(C(=O)c3ccc4c(c3)OCCO4)CC2)c1	-2	-7	2	-4	/	3	-6	8
CC(C)N(Cc1nccn1C)C(=O)c1cc(COc2cccc(C(F)(F)F)c2)on1	-4	-13	5	2	i	-13	-2	-3
C[C@H](CO)N1C[C@H](C)[C@H](CN(C)C(=O)Nc2ccccc2)OCc2cnnn2CCCC1=O	/	/	1	1	/	-26&-4	/	-10
O=C(/C=C/c1ccccc1)OCCN1C(=O)c2ccccc2C1=O	-8	-12	1	4	i	-16	-6	26
Cc1cccc2cc(CN(Cc3cccs3)C3(c4nnnn4C4CCCC4)CCCC3)c(=O)[nH]c12	2	-11	-6	-11	i	-9	10	/
COc1cccc(CN(C(=O)Cc2c[nH]c3ccccc23)C(C(=O)NC2CCCCC2)c2cccs2)c1 (stereo unspecified)	4	-8	-29	-24	i	-17	6	91*
COc1ccc(CN(C)C(=O)c2cc(S(=O)(=O)Nc3ccccc3F)ccc2C)c(OC)c1	4	4	1	-1	i	13	9	/
O=C(c1ccccc1)C(O)c1ccccc1 (stereo unspecified)	/	/	-4	3	/	-11	-12	/
Cc1ccc(/C=N/NC(=O)c2c[nH]c3ccccc23)o1	8	-5	11	1	i	-8	-13	/
CCN1C[C@@H]2[C@@H]3C(=O)N(C)C(=O)[C@@H]3[C@](Cc3ccccc3)(C1=O)N2C(=O)c1ccc(Br)cc1	/	/	-3	0	/	-3	/	8
O=C1[C@@H]2[C@H](Cc3ccc(O)cc3)N[C@]3(C(=O)Nc4ccccc43)[C@@H]2C(=O)N1c1ccc(F)cc1	9	4	-5	-1	i	-8	/	-73
CCC(C)[C@H](NS(=O)(=O)c1ccc(C)cc1)C(=O)N1CCC(C(=O)N2CCC(C(N)=O)CC2)CC1 (stereo partly specified)	8	0	0	7	i	-8	-10	/
Cc1cc(=O)n(C)c(=O)n1CCCCCOc1cccc([N+](=O)[O-])c1	-1	-6	2	-4	i	2	/	8
COC1=C/C(=C/c2c(N)n3c(nc2=O)sc2cc(S(C)(=O)=O)ccc23)C=CC1=O	?	?	33	55	i	-32	-4	?

Look-ups from the entries so far:
Entry for `C[C@H](CO)N1C[C@H](C)[C@H](CN(C)C(=O)Nc2ccccc2)OCc2cnnn2CCCC1=O` under MT1-MMP act inh RFP: 1
Entry for `O=C(NNC(=O)c1cc(Cl)ccc1O)c1cccs1` under Env fusion inh: -10

(next part)
SMILES	PABP polyA inh	eIF4H FP inh	MT1-MMP act inh	MT1-MMP act inh RFP	Rce1 inh	Yeast UUG start	CSC inhib	Env fusion inh
Nc1ccccc1-c1nnn(CC(=O)Nc2ccc3c(c2)OCCO3)n1	-5	0	-1	2	i	-9	/	-12
CN(CC(=O)N1CCN(c2ccccc2)CC1)S(=O)(=O)c1cnc[nH]1	-6	-8	0	3	i	-14	-6	/
O=C(NC(=O)c1cccc(F)c1)Nc1nc(-c2ccc(F)cc2)cc(C(F)(F)F)n1	18	-10	-1	-1	i	/	25	13
COc1ccc(C(=O)OCC(=O)N2CCN(C(=O)c3ccco3)CC2)cc1OC	/	/	0	-1	/	-5	-5	/
COc1ccccc1/C=C1\SC(=S)N(CC(=O)NC2CCS(=O)(=O)C2)C1=O (stereo unspecified)	10	-7	2	4	i	/	-1	-7
CSc1ccc(CN(C)CC(=O)Nc2ccccc2Br)cc1	-7	-7	-4	-5	i	/	-4	-2
Cc1ccc(NC(=O)CNC(=O)c2cccc(Cl)c2)nc1	/	/	2	1	i	/	/	-17
Cc1cc(C)nc(NS(=O)(=O)c2ccc(NC(=O)C(C)Oc3ccccc3F)cc2)n1 (stereo unspecified)	9	-12	3	3	i	4	3	-3
COc1ccccc1CNC(=O)CN1CCN(S(=O)(=O)c2cccs2)CC1	0	2	1	1	i	-12	-5	-6
Cc1cccc(S(=O)(=O)N(C)C[C@H]2OCc3cnnn3CCCC(=O)N([C@H](C)CO)C[C@H]2C)c1	/	/	3	4	/	-8&-9&0	/	-21[16.7 µM]
CC(C)(C)NC(=O)C(c1ccncc1)N(C(=O)c1csnn1)c1ccccc1 (stereo unspecified)	4	-4	1	0	i	-24	6	/
CCOC(=O)Cc1csc(NC(=O)c2csc(C)c2)n1	0	-2	-11	-12	i	/	24	3
Cc1ccc(CN2CCCCC2C(=O)Nc2ccc(Oc3cccnc3)cc2)o1 (stereo unspecified)	-10	-4	-8	-12	i	4	48	7
O=C(c1cc(-c2ccc(Cl)s2)nc2ccccc12)N1CCOCC1	/	/	0	-7	i	/	5	-13
Cc1cccc(N(C(=O)c2csnn2)C(C(=O)NCc2ccccc2)c2ccncc2)c1 (stereo unspecified)	5	-8	-1	4	i	-6	-3	2
O=P(O)(CCc1ccccc1)CN1CCCCC1	5	-2	-6	2	i	-10	-2	-20
COc1ccc(S(=O)(=O)N2CCOCC2)cc1NC(=O)CSc1nnc2n1CCCCC2	/	/	1	5	/	-13	-13	/
O=C(CCC(=O)OCc1cccc([N+](=O)[O-])c1)Nc1ccccc1Cl	-3	17	-5	-1	i	/	0	-408
Cc1ccc(NS(=O)(=O)c2cccc(C(=O)NC3CC3)c2)c(C)c1	/	/	1	-2	/	-15	-22	-8
COc1cccc(C(=O)N/N=C(\CC(C)C)c2ccccc2)c1	-8	-1	4	7	i	/	7	17
COc1ccc(NC(=O)/C(=C\c2cccs2)NC(=O)c2ccco2)cc1	6	1	1	-2	i	-16	-7	-12
O=C(NCc1n[nH]c(=S)n1-c1ccc(Cl)c(Cl)c1)c1cccs1	0	-1	2	2	i	-15	-2	-21
O=C(CSc1nnc(CNC(=O)c2cccs2)o1)Nc1cccc(Cl)c1	-1	-4	1	2	i	-33	-3	10
Brc1c(CSc2nnc(-c3ccco3)o2)nc2ccccn12	-6	-4	20	5	i	/	5	/
CC1SC(C)C(=O)N(CC(=O)Nc2ccc([N+](=O)[O-])cc2)C1=O (stereo unspecified)	-7	-2	2	5	i	/	-10	7
Cc1onc(-c2ccccc2)c1C(=O)OCC(=O)Nc1cccc(Cl)c1	/	/	5	-5	/	3	/	13
C/C(=C\C(=O)c1ccc(F)cc1)Nc1ccc(N2CCOCC2)cc1	0	-2	5	1	i	-6	22	-1
COc1cccc(-n2ccnc2SCC(=O)Nc2ccccc2)c1	7	6	8	-7	i	-17	2	/

Screens from PubChem.
